Bst PK mod – alters activity of Bacillus stearothermophilus pyruvate kinase | partly purified Bacillus stearothermophilus pyruvate kinase, luminescence ATP production; ribose 5-phosphate activator present at AC10 | Potency, µM | hit rate 1.2% among 51,000 | AID 361; in the data active means potency below about 11 µM; inconclusive means mostly about 12 µM to 25 µM; inactive means weaker than that;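 the screen sought inhibitors and activators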;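 further: potency means the concentration at half of the fitted maximal effect; scaled between full activation by ribose 5 phosphate and full inhibition by luteolin; about four in five hits inhibit and the cells do not say which; series up to 57 µM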
TsaE inh – YjeE (TsaE) inhibition, E. coli. hit rate 0.05% among 71,000. purified YjeE, fluorescence polarisation of a bound ADP probe. Potency, µM. AID 605. P0AF67; active = well fitted falling curve; inconclusive = weaker or top-dose-only fall, or a rising curve; inactive = flat or poorly fitted curve;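 further: top concentration of the series not given in the record; excess ADP was the control for the full effect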
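Fluorescence polarization of a BODIPY Texas Red–ADP probe (2 uM) bound to purified YjeE (10 uM) was read after 15 min room-temperature incubation with compounds. Loss of polarization marks inhibitors; ADP serves as titrated control.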
Active calls of the source: *; i = inactive; x = no result given.

SMILES	Bst PK mod	TsaE inh
O=C1CC(N2CCC(n3c(=O)[nH]c4ccccc43)CC2)C(=O)N1Cc1ccccc1 (centres undefined)	>57	i
CCOc1ccccc1N=C1SCCCN1C	>57	i
NC(=O)c1ccc(C(=O)Nc2ccc([As](=O)(O)O)cc2)cc1	x	i
O=C(CN1CCN(Cc2cccc(Cl)c2)C1=O)N1CCC2(CC1)OCCO2	>57	i
O=C(O)C12C3CCCC1C32c1ccccc1 (centres undefined)	x	i
FC(F)(F)C1=NC(C(F)(F)F)=NP(N2CCOCC2)(N2CCOCC2)=N1	x	i
OC(Cc1ccccc1)(c1ccccc1)C1CN2CCC1CC2 (centres undefined)	>26	x
OCCOc1ccccc1	x	i
C[C@@H]1O[C@H](O[C@@H]2CC[C@@]3(C=O)[C@H]4CC[C@@]5(C)[C@@H](C6=CC(=O)OC6)CC[C@@]5(O)[C@@H]4CC[C@]3(O)C2)C[C@H](O)[C@@H]1O	x	i
C/C(=C\[C@@H](N)C(=O)O)CP(=O)(O)O	x	i
O=Cc1ccc(Cl)cc1Cl	x	i
COP(=O)(OC)[C@@H](O)C(Cl)(Cl)Cl	x	i
O=C(c1ccc(CS(=O)(=O)c2ccccc2)o1)N1CCC2(CC1)OCCO2	>57	i
COc1cc2c(cc1OC)[C@H](C)NCC2	x	i
CCCCn1c(=O)c(C(=O)NCc2ccncc2)c(O)c2ccccc21	>57	i
O=c1[nH]c(=O)n(C2CCCCCC2)c(O)c1C=NCC1CCCO1 (centres undefined)	x	i
O=[N+]([O-])c1ccc2nc(N3CCNCC3)ccc2c1	x	i
CCOC(=O)CC(SP(=O)(OC)OC)C(=O)OCC (centres undefined)	x	i
CC(C)C[C@H](NC(=O)[C@@H]1CCCN1C(=O)[C@@H](N)Cc1ccc(O)cc1)C(=O)NCC(N)=O	>26	x
O=P1(NC2CCCC2)COc2ccccc2OC1	>57	i

Five entries from above in another layout.
Values run as follows: Bst PK mod | TsaE inh
> C/C(=C\[C@@H](N)C(=O)O)CP(=O)(O)O
  x | i
> O=Cc1ccc(Cl)cc1Cl
  x | i
> COP(=O)(OC)[C@@H](O)C(Cl)(Cl)Cl
  x | i
> O=C(c1ccc(CS(=O)(=O)c2ccccc2)o1)N1CCC2(CC1)OCCO2
  >57 | i
> COc1cc2c(cc1OC)[C@H](C)NCC2
  x | i

More results
SMILES	Bst PK mod	TsaE inh
O=C(Cn1ncc2c3ccccc3n(Cc3ccccc3F)c2c1=O)N1CCC2(CC1)OCCO2	>57	i
CC1(C)CN=C(NCc2ccccc2Cl)S1	>57	i
CCC1=C(C[C@H]2NCCc3cc(OC)c(OC)cc32)C[C@H]2c3ccccc3CCN2C1	x	i
CN1CCC(OC(=O)C2c3ccccc3Oc3ccccc32)CC1	>26	x
COc1cccc(N2CCN(Cc3ccc(Cl)cc3)CC2)c1	x	i
NC1(P(=O)(O)O)CCCCC1	x	i
C[C@H]1CCCC(=O)CCC/C=C/c2cc(O)cc(O)c2C(=O)O1	>57	i
CCCN1CCO[C@@H]2c3cc(O)ccc3OC[C@@H]21	x	i
CCc1cccc(CC)c1N(COC)C(=O)CCl	x	i
C[C@@H]1[C@H]2C=C[C@@H]1[C@@H](c1c3ccc(=O)c(O)c-3oc3c(O)c(O)ccc13)[C@@H]2C(=O)O	x	i
Cc1ccc2c(c1)C1CN(C)CCC1N2C(=O)Cc1cccs1 (centres undefined)	>57	i
Oc1ccc(Cl)cc1	x	i
CC[n+]1c(-c2ccccc2)c2cc(N)ccc2c2ccc(N)cc21	x	79µM*
CN(C(=O)Cc1ccc(Cl)c(Cl)c1)[C@@H](CN1CCCC1)c1cccc(OCC(=O)O)c1	x	i
O=C1CC[C@@]2(O)[C@H]3Cc4ccc(O)c5c4[C@@]2(CCN3CC2CC2)[C@H]1O5	>26	x
O=c1[nH]c(=O)n(-c2cccc(Cl)c2)c(O)c1/C=N/c1ccccn1	>57	i
COc1cccc(-c2cc(C(F)(F)F)n3nc(C(=O)N4CCC5(CC4)OCCO5)cc3n2)c1	>57	i
C=C1C/C(=C\C)C(=O)O[C@@H]2CCN3CC=C(COC(=O)[C@@]1(C)O)[C@H]23	x	i
C[C@H]1CC[C@]2(NC1)O[C@@H]1C[C@@H]3[C@@H]4CC=C5C[C@H](O)CC[C@@]5(C)[C@H]4CC[C@@]3(C)[C@H]1[C@@H]2C	x	i
CN1C(=O)N(C)C(=O)C2(Cc3c(nc4ccccn4c3=O)N3CCC(Cc4ccccc4)CC32)C1=O (centres undefined)	>57	i

Exported as labelled records: entries from further up
C[C@H]1CC[C@]2(NC1)O[C@@H]1C[C@@H]3[C@@H]4CC=C5C[C@H](O)CC[C@@]5(C)[C@H]4CC[C@@]3(C)[C@H]1[C@@H]2C
  Bst PK mod: x	TsaE inh: i
NC1(P(=O)(O)O)CCCCC1
  Bst PK mod: x	TsaE inh: i

The listing continues:
SMILES	Bst PK mod	TsaE inh
CC[N@+]1(C)CCC[C@@H](OC(=O)C(O)(c2ccccc2)c2ccccc2)C1	x	i
CCNC(C)(C)[C@@H](SS)c1ccc(Br)cc1	x	i
CCC(C)(C)n1nnnc1C(c1cccs1)N1CC=C(c2ccc(F)cc2)CC1 (centres undefined)	>57	i
c1cc(CCN2CCCCC2)ccn1	x	i
O=C1NC(=O)C(C/C=C/c2ccccc2)C(=O)N1	>26	x
CCN[C@]1(c2cccs2)CCCCC1=O	x	i
CCn1c(O)c(C(=O)CC2NCCc3ccccc32)c(=O)n(CC)c1=S (centres undefined)	>26	x
C[C@@]12Cc3cnc(-c4ccccc4)nc3C[C@@H]1CC[C@@H]1[C@H]3CC[C@@](C)(O)[C@]3(C)CC[C@@H]12	x	i
CC(C)NC(C)C	x	i
O=S(=O)(Nc1nccs1)c1ccc([As](=O)(O)O)cc1	x	i
O=C(Cn1ncc2ccccc21)N1CCC2(CC1)OCCO2	>57	i
Cc1ccc(C2(c3ccc(C)c(O)c3C)CCN(C)CC2)c(C)c1O	x	i
O=C1CS[C@@H](c2ccccc2Cl)c2cc(Cl)ccc2N1	x	i
O=[As](O)(O)c1ccc(NCc2ccccc2)cc1	x	i
Cc1nnc(SCc2nc3ccccc3c(=O)n2-c2ccccc2Cl)n1N	>57	i
c1ccc(N2CCC3(CCNCC3)CC2)cc1	x	i
COc1cc(CCN)ccc1O	x	i
O=C(CCCN1CCC2(CC1)C(=O)NCN2c1ccccc1)c1ccc(F)cc1	>26	i
CC(=NCc1cccnc1)c1c(O)n(-c2ccc(C)cc2)c(=O)[nH]c1=O	>57	i
CC(C)(c1ccc(OCC2CO2)cc1)c1ccc(OCC2CO2)cc1 (centres undefined)	x	i
CCOC(=O)c1c(N)n(Cc2ccco2)c2nc3ccccc3nc12	x	i
O=c1cccc2n1CC1CC2CN(c2ncnc3c2cnn3-c2ccccc2)C1 (centres undefined)	>57	i
CC1(C)C2CC=C(CN3CCOCC3)C1C2 (centres undefined)	>57	i
CCOC(=O)c1c(C)n(Cc2ccccc2)c2ccc(OCC(O)Cn3nc(C)nc3C)cc12 (centres undefined)	x	i
CN(C)[C@@H]1C(=O)C(C(N)=O)=C(O)[C@]2(O)C(=O)C3=C(O)c4c(O)cccc4[C@@](C)(O)[C@H]3[C@H](O)[C@@H]12	x	i
CN1CCN(C(=O)Cc2nc3ccccc3[nH]2)CC1	>57	i
O=C(Cc1ccccc1)Oc1ccccc1N1C(=O)CCC1=O	>57	i
Oc1ccc2c3c1O[C@H]1[C@@H](O)CC[C@]4(O)[C@H](C2)N(CC2CCC2)CC[C@@]314	x	i
ClC(Cl)=C(Cl)Cl	x	i
C=CCN1C[C@H](C)N([C@H](c2ccc(C(=O)N(CC)CC)cc2)c2cccc(O)c2)C[C@H]1C	x	i
C[C@@]12CC[C@H]3[C@@H](CC[C@@H]4C[C@H]5S[C@H]5C[C@]43C)[C@H]1CC[C@H]2O	x	i
C=C[C@@H]1CN2CC[C@H]1C[C@H]2[C@@H](O)c1ccnc2ccccc12	x	i
O=C(NC1CC1)C1CSC(c2cccnc2)=N1 (centres undefined)	>57	i
CC1=NCCc2c1[nH]c1cc(O)ccc21	x	i
CN1[C@@H]2CC[C@H]1CC(OC(c1ccc(F)cc1)c1ccc(F)cc1)C2 (some centres undefined)	x	i
CC(=O)N1CCC2(CC1)CC(=O)c1cc(OCC(=O)N3CCN(C)CC3)ccc1O2	>57	i
CCOC(=O)c1c(C)n(Cc2ccccc2)c2ccc(OCC(O)CN3C(=O)CNC3=O)cc12 (centres undefined)	>57	i
C=CCn1c(O)c(C(CC)=NCCCO)c(=O)[nH]c1=O	>57	i
CN1CC[C@@]2(CCCN(C(=O)c3ccncc3)C2)C1	x	i
O=c1c2ccccc2nc(CN2CCCCCC2)n1-c1ccc(F)cc1	>57	i

Four entries picked at random from those above, as already listed:
SMILES	Bst PK mod	TsaE inh
O=c1c2ccccc2nc(CN2CCCCCC2)n1-c1ccc(F)cc1	>57	i
CCOC(=O)c1c(N)n(Cc2ccco2)c2nc3ccccc3nc12	x	i
C=CCn1c(O)c(C(CC)=NCCCO)c(=O)[nH]c1=O	>57	i
CC(=O)N1CCC2(CC1)CC(=O)c1cc(OCC(=O)N3CCN(C)CC3)ccc1O2	>57	i

(more compounds)
SMILES	Bst PK mod	TsaE inh
CCN1C[C@@]2(C)CC[C@H](O)[C@@]34[C@@H]5C[C@H]6[C@H](O)[C@@H]5[C@](O)(C[C@@H]6OC)[C@H](C[C@@H]23)[C@H]14	x	i
CC(C)CNCCc1ccccn1	x	i
CC(C)CN1CCCC2(CCN(C(=O)Oc3ccccc3)CC2)C1	x	i
CN1CCC(N(C)c2nc(-c3ccccc3)nc3ccccc23)CC1	i	i
CC(C)n1cc(C(=O)N(CC(=O)NC2CCCC2)Cc2ccccc2)cn1	>57	i
O=C(Cc1ccccc1)OCn1nnc2ccccc2c1=O	>57	i
Cc1cnc[nH]1	x	i
c1ccc2oc(N3CCNCC3)nc2c1	>57	i
O=C(c1cc(-c2cccnc2)nc2ccc(Cl)cc12)N1CCC2(CC1)OCCO2	>11	i
C[C@@]12CC[C@H](O)C[C@@H]1CC[C@H]1[C@H]2C[C@@H](O)[C@]2(C)[C@@H](C3=CC(=O)OC3)CC[C@@]12O	x	i
O=C(C1CC(=O)N(C2CCCCC2)C1)N1CCC2(CC1)OCCO2 (centres undefined)	>57	i
CCCCP(=O)(O)c1ccccc1	x	i
COc1cccc(OC)c1C1=NCC(=O)Nc2c1oc1ccc(Br)cc21	x	i
NC1CCC(CC2CCC(N)CC2)CC1 (centres undefined)	x	i
CCCCn1c(O)c(C(CC)=Nc2ccc(OCC)cc2)c(=O)[nH]c1=O	>57	i
O=C1C2CCCN2C(c2cccnc2)N1c1cccc(Cl)c1 (centres undefined)	x	i
NCC[Se][Se]CCN	x	i
CN(C)C(=O)Oc1ccc(OC(=O)N(C)C)cc1	x	i
CCCC(C)n1[nH]c(=O)c2c1NC(=O)CSC2c1ccc(OC)c(OC)c1 (centres undefined)	i	i
CC1=CC(=O)C2=C(C)CC(O)C3C(C)C(=O)OC3C12 (centres undefined)	>57	i
Cc1cccnc1-n1c(CN2C(=O)c3ccccc3C2=O)nc2ccccc2c1=O	>57	i
O=C(Nc1cccnc1)c1c(O)c2c(n(Cc3ccccc3)c1=O)CCCC2	>57	i
CC12CN3CC(c4ccccc4)(CN(C1)C31CCCCC1)C2=O	>57	i
FC(F)(F)/C(=N\P(=S)(N1CCOCC1)N1CCOCC1)N1CCOCC1	>57	i
CC(O)CCl (centres undefined)	x	i
COc1ccc(C(=O)O[C@H]2CC[C@@]3(C)[C@H]4CC[C@H]5[C@]3(C[C@]3(O)[C@H]6CN7C[C@H](C)CC[C@H]7[C@](C)(O)[C@]6(O)[C@H](O)C[C@]53O)O[C@]24O)cc1OC	x	i
COc1ccc(NC(=O)N2CC[C@@]3(CCCN(C(=O)Oc4ccccc4)C3)C2)cc1	x	i
O=C(CCn1c(=O)oc2ccccc21)N1CCC2(CC1)OCCO2	>57	i
CCCC1(CCC)C(=O)NC(=NCc2ccccc2)NC1=O	>57	i
NCC1(CC(=O)O)CCCCC1	>26	i
Cc1cccc(NC(=O)CSc2nnc([C@@H](N)Cc3c[nH]c4ccccc34)o2)c1C	>57	i
CC(=O)Nc1ccccc1OC(=O)N(C)C	>57	i
Nc1ccccc1N=Cc1c(O)n(CCC2=CCCCC2)c(=O)[nH]c1=O	>57	i
CS(=O)(=O)Nc1ccc(Cc2noc(-c3ccc4[nH]cc(CCN)c4c3)n2)cc1	x	i
CC(=O)O[C@H]1CC[C@@]2(C)[C@@H](CC[C@H]3[C@H]2CC(=O)[C@]2(C)[C@@H]3C[C@@H](N3CC3)[C@H]2C(C)=O)C1	x	i
CC(C(N)=O)N1CC(c2ccc(Cl)cc2)CC1=O (centres undefined)	>57	i
COc1ccc(C(c2ccc(OC)cc2)C(Cl)(Cl)Cl)cc1	x	i
CCOP(=O)(C#CC(C)(C)C)C(O)(c1ccccc1)C(F)(F)F (centres undefined)	>57	i
CC[C@H](CO)NC(=O)[C@H]1C=C2c3cccc4[nH]cc(c34)C[C@@H]2N(C)C1	x	i
O=C(Oc1ccccc1)N1CCC2(CCN(Cc3ccncc3)CC2)CC1	x	i
C[C@]1(C(=O)O)[C@@H]2CC[C@@H](O2)[C@@]1(C)C(=O)O	x	i
CCCCn1c(O)c(C(C)=NCCN2CCCCC2)c(=O)[nH]c1=O	>57	i
CC(=O)Nc1ccc(OC(=O)N(C)c2ccccc2)cc1	x	i
O=c1[nH]c(=O)n(C2CCCCCC2)c(O)c1C=NCCCN1CCOCC1	i	i
O=C(NCNC(=O)N[C@H]1C(=O)NC(=O)N1CO)N[C@H]1C(=O)NC(=O)N1CO	x	i
O=C1C=CC(=O)C=C1	x	i
Cc1ccc2c(c1)C1CN(C)CCC1N2C(=O)c1ccc(Br)o1 (centres undefined)	>57	i

Not all compounds are listed (hit frequency here may not be typical).
